Assay outcomes deposited in PubChem BioAssay by ICCB-Longwood Screening Facility, Harvard Medical School.
Ab BasE inh – blocks the Acinetobacter baumannii siderophore enzyme BasE; purified BasE, fluorescence polarization binding displacement; inhibition, % (test concentration not listed); 84,000 tested, 0.1% active;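 active means both replicates above 25% with normal brightness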;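 further: 0% = negative plate control signal and 100% = positive plate control signal; stock transfer was 100 nL into about 30 µL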
LANA-nucl inh – LANA-nucleosome interaction inhibition | FITC-LANA1-23 / chicken nucleosome fluorescence polarization; hits give low values | z-score (concentration not given with the values) | 51,000 tested, 0.3% active | AID 720717;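 active means both repeat wells score below -2 in polarization z-score versus plate sample wells, excluding overly bright wells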;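 further: 100 nL library stock added to about 30 µL; numbers are from one replicate; some results filed as inactive read as strong as hits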
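System – purified chicken nucleosomes with FITC-labelled LANA N-terminal peptide (1-23) · Amount – 240 nM purified chicken nucleosomes (480 nM peptide binding sites), final · Also added – 50 nM FITC-LANA1-23 probe · Medium – TEN-BT buffer, pH 7.5 · Incubation – compound with peptide–nucleosome mix 10–45 min at room temperature · Detection – fluorescence polarization, ex 480 nm, em 535 nm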
* = called active by the depositor; x = no result given. Some of the compounds tested; the hit share may differ from the screen's.

Values run as follows: Ab BasE inh	LANA-nucl inh
CN1/C(=C\P(=O)(C2CCCCC2)N2CCOCC2)C(C)(C)c2ccccc21 (configuration not stated)
    -4.1	x
C=CCN1C(=NC(=O)C(CC)CC)SC2CS(=O)(=O)CC21 (configuration not stated)
    1.4	-1.1
Cn1c(N)c(S(=O)(=O)NC2CCCCC2)c(=O)n(C)c1=O
    -0.5	2.1
Cc1ccn2c(=O)c(NC(=O)COc3ccccc3)c(C)nc2c1
    -1.4	1.4
COC(=O)c1cc(Cl)cc(Cl)c1O
    4.8	-0.15
C[N+](C)(C)CCOC(=O)CCC(=O)OCC[N+](C)(C)C
    x	-0.48
COC(=O)c1sccc1OC
    x	0.21
Cc1cccc(NC(=O)CSc2sc3c(=O)[nH]c(=O)[nH]c3c2C#N)c1
    2.5	0.79
CCOC(=O)Nc1ccc2c(COC(=O)c3nc4nc(C)ccn4n3)cc(=O)oc2c1
    -0.9	x
CCCSc1ncc(CO)n1Cc1ccccc1
    2.9	-0.93
Cc1csc2nc(SCC(=O)NCc3ccccc3)[nH]c(=O)c12
    17	-0.81
CCC(=O)NC1=NC(=O)/C(=C/c2cn(C(=O)CC)nc2-c2ccccc2)S1
    1.5	x
Cc1cc(NC(=O)COC(=O)C(C)N2C(=O)C3CC=CCC3C2=O)no1 (configuration not stated)
    2.2	x
O=C(O)c1ccc2c3ccc(C(=O)O)c4c(C(=O)O)cc5c(c6c(cc(C(=O)O)c1c26)S5(=O)=O)c43
    13	x
O=C(C1CC1)n1cc(C(=S)N2CCOCC2)c2ccccc21
    0.6	-0.3
COC(=O)c1sccc1NN1C(=O)c2ccccc2C1=O
    2.0	x
Brc1cccc(-c2noc(Cc3ccccc3)n2)c1
    -3.7	0.96
CSc1ccc(/C=C(\C#N)C(=O)C(C)(C)C)cc1
    -0.6	x
CCN1CCCC1CNC(=O)C1c2ccccc2C(=O)N(C)C1c1ccc(OC)cc1 (configuration not stated)
    -2.3	0.1
COC(=O)c1cnc(Nc2cc(OC)ccc2OC)c2ccccc12
    2.2	0.66
COc1cc2c(cc1OC)C(C)N(S(=O)(=O)c1ccc(-c3ccccn3)s1)CC2 (configuration not stated)
    -0.6	x
O=C(CSc1nc(C2CC2)n(-c2ccccc2)n1)Nc1cc2[nH]c(=O)[nH]c2cc1Br
    2.1	x
COc1cc2cccc(OC)c(=O)c2c(O)c1OC
    2.7	x
CC(C)(C)NC(=O)C12CC3CCC(CC(C3)C1)C2
    4.3	x
CCC1Sc2ccc(S(=O)(=O)CCC(=O)Nc3ccccc3C)cc2NC1=O (configuration not stated)
    -0.1	-1.6
COC(=O)c1c(OC)ccc(NC=C(C#N)C#N)c1OC
    -1.0	-0.12
COc1ccccc1N(CC(=O)NC1CC2CCC1C2)S(=O)(=O)c1ccc(C)cc1 (configuration not stated)
    5.1	x
NC(=O)C1CN(C(=O)CN2CSCC2=O)c2ccccc2O1 (configuration not stated)
    0.2	x
N#CCOc1nc(C(F)(F)F)nc2c1cnn2-c1ccccc1
    -21	x
Cc1cc(NC(=O)NC(=O)c2csnn2)no1
    1.0	x
Cc1ccc2nc(C(=O)O)c(C(=O)O)nc2c1
    -0.1	-0.55
c1ccc(-c2cc(-c3cn4cccnc4n3)on2)cc1
    1.2	-0.52
COc1cc(/C=C(\C#N)C(=O)N2CCOCC2)cc(OC)c1OC
    0.7	-0.25
O=c1[nH]c(-c2ccc3c(c2)OCO3)nc2ccccc12
    4.2	-0.52
CCN1Cc2ccccc2CC1C(=O)O (configuration not stated)
    -4.2	-0.13
COc1ccccc1/C=C/c1ccccc1OC
    -0.6	x
CCc1ccc(C=C2C(=O)OC(C)(C)OC2=O)o1
    1.4	-0.66
Cc1nc2cc(Cl)ccc2n1CO
    -2.0	-0.18
CN(CC(=O)NC1CCCCCC1)c1nnc(N2CCCC2=O)s1
    1.4	0.025
COc1ccc(C(=O)OCC(=O)N2CC3(C)CC2CC(C)(C)C3)cc1 (configuration not stated)
    1.7	x
COC(CNS(=O)(=O)c1ccc2c(c1)c(=O)n(C)c(=O)n2C)OC
    1.3	-0.35
O=C1C=C(NCCc2ccccc2)CC(c2ccco2)C1 (configuration not stated)
    0.5	x
CCOC(=O)C1C(=O)C=C(c2ccco2)CC1c1ccc(C)cc1 (configuration not stated)
    -1.2	0.039
COc1ccc(C(=O)OCC(=O)NC2(C#N)CCCC2)cc1F
    1.9	x
Cc1ccc(-n2nnc(-c3ccc(Cl)cc3)n2)cc1
    1.9	0.056
CC(C)NC(=O)C1CC(=O)N(c2ccc(Oc3ccccc3)cc2)C1 (configuration not stated)
    -0.6	-0.29
OC[C@@H](O)C(O[C@@H]1O[C@H](CO)[C@H](O)[C@H](O)[C@H]1O)[C@H](O)[C@@H](O)CO (some centres not stated)
    x	0.041
CSc1nnc(COc2ccc(C(C)C)cc2)o1
    1.4	-0.12
Cn1c(=O)c(=O)n(C)c2cc(S(=O)(=O)CCC(=O)NC3CCCCCCC3)ccc21
    -0.5	0.34
O=C(OCc1ccc(Cl)cc1Cl)c1ccncc1
    4.3	-0.43
O=C(O)CCc1ccc(-c2cccs2)n1-c1cccc(O)c1
    -1.2	x
COc1cc(N2C(=O)CSCC2=O)c(Cl)cc1Cl
    x	-1.3
Cc1nn(CCCC(=O)NCCN2CCOCC2)c(=O)c2c1sc1ccccc12
    0.9	-0.91
CCOC(=O)C1=C(C)Nc2ccccc2N=C1NC(=O)CCNC(=O)c1ccco1
    1.1	x
CCC(CC)NCC(=O)Nc1cc2oc3ccccc3c2cc1OC
    2.2	x
N#CC(C(=O)Nc1ccc(Cl)c(Cl)c1)=C1Nc2ccccc2N1
    0.5	0.55
CCCCC/C=C\C/C=C\C/C=C\C/C=C\CCCC(=O)O[C@H](COCCCCCCCCCCCCCCCC)COP(=O)([O-])OCC[N+](C)(C)C
    -1.6	0.35
O=C(Oc1nsnc1N1CCCCC1)N(c1ccccc1)c1ccccc1
    1.1	x
CN1CCC(NC(=S)NCCc2ccccc2)CC1
    -0.8	x
CCOC(=O)Cn1c(=O)c(C2OCCO2)cc2c(C)ccc(C)c21
    0.0	0.03

Single records, from the list above.
Entry for N#CC(C(=O)Nc1ccc(Cl)c(Cl)c1)=C1Nc2ccccc2N1 → Ab BasE inh: 0.5; LANA-nucl inh: 0.55
Entry for CCN1Cc2ccccc2CC1C(=O)O (configuration not stated) → Ab BasE inh: -4.2; LANA-nucl inh: -0.13

Grouped by structure: those above containing fluorine.
Values run as follows: Ab BasE inh	LANA-nucl inh
N#CCOc1nc(C(F)(F)F)nc2c1cnn2-c1ccccc1
    -21	x
COc1ccc(C(=O)OCC(=O)NC2(C#N)CCCC2)cc1F
    1.9	x

(next part)
Values run as follows: Ab BasE inh	LANA-nucl inh
COc1ccc(NC(=O)COC(=O)C2CCN(C(=O)Nc3ccccc3)CC2)cc1Cl
    0.0	x
COc1ccc2[nH]c(=O)c(CN(CCO)S(=O)(=O)c3ccc(Cl)c(C(F)(F)F)c3)cc2c1
    -4.6	2.4
Cc1nc2n(Cc3ccccc3)c3ccccc3n2c1C(=S)Nc1ccccc1
    -0.7	x
Cc1cc(OC(=O)/C=C/c2ccc(C)o2)n(Cc2c(Cl)cccc2Cl)n1
    -0.3	x
CCCCN(C)Cc1ccncc1
    -0.2	0.2
O=C(NC1CCCCC1)c1c[nH]c2ccc(S(=O)(=O)Nc3ccc4c(c3)OCCO4)cc2c1=O
    -0.8	0.052
Cc1[nH]c(=O)[nH]c1C
    -0.6	x
CC1(C)CC(NC(=O)NC23CC4CC(CC(C4)C2)C3)CC(C)(C)N1
    4.0	-0.014
c1ccc(NC(c2ccccc2)c2nnc(-c3ccccc3)o2)cc1 (configuration not stated)
    0.4	-0.07
c1ccc(-c2csc(N3CCN(c4ncccn4)CC3)n2)cc1
    1.4	-0.11
COCCCn1c(C)cc(C(=O)Cn2nc(C)c(C)c(C#N)c2=O)c1C
    0.8	x
O=C1CN(NC(=O)NC2CCCCC2)C(=O)N1
    3.2	x
O=C(Nc1ccc(Cn2nnc3ccccc32)cc1)c1cccs1
    4.2	-0.33
CCOC(=O)c1ccc(Oc2cc(C)nc(SC)n2)cc1
    1.5	x
CCCc1nnc(SCC(=O)Nc2ccccc2)o1
    3.3	0.1
N=C1/C(=C2\Nc3ccccc3S2)CC(=O)N1CCc1ccccc1
    -2.0	x
CCC(CC)NC1CCN(Cc2ccccc2)CC1
    -1.8	0.037
CCCC(=O)Nc1ccc(-n2c(C)ccc2C)cc1
    1.1	x
N#CCC(=O)Nc1ccc(C(=O)OCC(=O)N(Cc2ccccc2)C2CCS(=O)(=O)C2)cc1 (configuration not stated)
    2.4	x
O=C(NCCCN1CCCC1=O)c1c(O)nc2ccccn2c1=O
    -0.6	-0.63
N#C/C(=C(/O)CCCN1C(=O)c2ccccc2C1=O)c1nc2ccccc2[nH]1
    2.6	-1.5
CC(O)(CNCc1ccc(Cl)cc1)CSc1ccccc1Cl (configuration not stated)
    0.9	x
CC(=O)Nc1sc2c(c1C(N)=O)CCCC2
    0.2	-0.067
CCOc1ccc(-c2nnn(CC(=O)NC3CCCCC3)n2)cc1
    1.0	-1.3
Cc1cc(C(=O)OCC(=O)N2c3ccccc3Sc3ccccc32)no1
    -0.3	x
CCOc1ncccc1C(=O)Oc1ccc2c(c1)OCO2
    -0.1	x
CC(OC(=O)c1ccc(Oc2ccccc2)cc1)C(N)=O (configuration not stated)
    -0.2	x
CC(=O)N1CC=C2C(C#N)=C(N)C(C#N)(C#N)C(CCc3ccccc3)C2C1 (configuration not stated)
    -2.2	-1.2
COC(=O)c1cnc(-n2ncc(C#N)c2N)nc1C(F)(F)F
    2.8	x
O=C(NCC(O)c1ccc2ccccc2c1)c1c(F)cccc1F (configuration not stated)
    x	0.034

Individual results from the list.
Ab BasE inh result of O=C1CN(NC(=O)NC2CCCCC2)C(=O)N1 reads 3.2
LANA-nucl inh result of O=C(NCC(O)c1ccc2ccccc2c1)c1c(F)cccc1F (configuration not stated) reads 0.034

Carrying on:
Values run as follows: Ab BasE inh	LANA-nucl inh
NS(=O)(=O)c1cccc(C(=O)OCc2ccc(Cl)cc2)c1
    -0.2	x
Nc1ccccc1SC(CC(=O)c1ccc(Br)cc1)c1ccccc1 (configuration not stated)
    1.3	x
O=c1cc(CSc2nnc(-c3ccccc3)o2)c2ccccc2[nH]1
    -1.8	-0.15
CCCNC(=O)c1cc(-c2ccccc2)on1
    -2.7	0.48
O=C(O)CNC(=O)c1ccc2ccccc2c1
    2.2	x
Cc1ccc2nc(C3CCCN(C(=O)NCc4ccccc4)C3)[nH]c2c1 (configuration not stated)
    -2.9	0.68
CC1CCN(C(=O)c2cc3n(n2)C(C(F)(F)F)CC(c2ccccc2)N3)C(C)C1 (configuration not stated)
    0.4	-0.088
CC1CCCC(NC(=O)Nc2noc3c2COc2ccccc2-3)C1C (configuration not stated)
    0.0	-0.72
CC12CC3(C)CC(C)(C1)CC(C(=O)NC1=NCCS1)(C2)C3
    0.5	x
C=C(C)CNC(=S)N1CCNCC1
    2.4	0.26
O=C(O)CCn1nc(-c2ccc(F)cc2)cc(Cc2ccccc2)c1=O
    0.5	0.61
Cc1ccc(S(=O)(=O)c2c(F)c(F)c(S(=O)(=O)c3ccc(C)cc3)c(F)c2F)cc1
    -2.5	1.3
O=C(N/N=C/c1c(-c2ccccc2)nc2sccn12)c1ccc2ccccc2n1
    -1.5	x
CCc1ccc(C2CC(=O)NC(N)=N2)cc1 (configuration not stated)
    -1.4	0.89
OCCOCCNc1ncnc2sc(-c3ccccc3)cc12
    -1.1	-0.61
CC1CN(S(=O)(=O)c2ccc(NC(=O)C(NC(=O)Cc3ccccc3)C(C)C)cc2)CC(C)O1 (configuration not stated)
    1.4	x
O=C(Nc1ccc(-c2nc3ncccc3o2)cc1)c1ccccc1
    -2.0	x
CCCc1n[nH]c(=O)c2c1nnn2Cc1ccccc1
    1.3	-3.3
O=c1c(C=NC2CC2)c(O)n(C2CCCCC2)c(=O)n1C1CCCCC1
    0.3	-0.62
Cc1nc2ccccc2c(=O)n1NC(=O)c1ccccc1
    -1.8	-0.24
CC1CCCCN1C(=S)NCc1ccco1 (configuration not stated)
    3.2	x
COc1ccccc1-c1nc(-c2ccc(C(F)(F)F)cc2)no1
    2.0	-0.19
CCN(Cc1ccncc1)C(=O)C1CC1C (configuration not stated)
    -4.2	1.1
Cc1ccc(P(=O)(CO)c2ccc(C)cc2)cc1
    -0.9	-0.0095
CCCCOc1ccc(-c2nnn(C(C)(C)C(=O)O)n2)cc1
    1.9	-0.17
Cc1cc(C)c2c(=O)c3c(oc2c1)C(=O)N(CCO)C3c1ccccc1F (configuration not stated)
    -4.1	0.29
O=C(Nc1ccc2ccccc2n1)c1ccc(Cl)cc1
    0.7	x
COc1cccc(NC(=O)c2ccccc2Cl)c1
    0.7	-0.44
CCOc1nc2cccnc2n(C(CC)C(=O)Nc2ccccc2CC)c1=O (configuration not stated)
    0.4	-0.94
COc1ccc(NC(=O)CSCc2ccccc2)cn1
    -0.1	x
